YopH inh: inhibitors of Yersinia enterocolitica YopH tyrosine phosphatase | fluorescence Ex485/Em525 | inhibition, %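 (about 10 µM by stock and volumes)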 | 0.16% of 140,000 active | AID 898;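 active = inhibition of 50% or more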;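 note: controls were vehicle for no effect and minimum signal wells for full effect; inactives centre near -20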
Mtb bLac sens: beta-lactam sensitization of Mtb H37Rv; M. tuberculosis H37Rv growth with meropenem, percent inhibition; hits of this screen are not shown here; inhibition, % at 25 µM; 0.27% of 330,000 active;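 active = about 74% or more and at least 40 points above the plate without the antibiotic, then above 30% in a dose series; inconclusive = first-round hits that could not be retested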;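 note: growth measured after seven days incubation then overnight dye step; 0% = bacteria only wells and 100% = bacteria with antibiotic; twin plates without the antibiotic show which effects depend on it; some results filed as inactive read as strong as hits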
RecA splice inh: blocks M. tuberculosis RecA intein splicing. P9WHJ3. 0.75% of 290,000 active. inhibition, %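 (about 9 µM by stock and volumes)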. cell-free RecA intein splicing, fluorescence. AID 2221; in the data active = inhibition above about 30%; inconclusive = no clear call, values can overlap the other calls;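 note: 0% = vehicle wells and 100% = reference inhibitor control wells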
Target sequence (P9WHJ3 whole entry, looked up, canonical isoform): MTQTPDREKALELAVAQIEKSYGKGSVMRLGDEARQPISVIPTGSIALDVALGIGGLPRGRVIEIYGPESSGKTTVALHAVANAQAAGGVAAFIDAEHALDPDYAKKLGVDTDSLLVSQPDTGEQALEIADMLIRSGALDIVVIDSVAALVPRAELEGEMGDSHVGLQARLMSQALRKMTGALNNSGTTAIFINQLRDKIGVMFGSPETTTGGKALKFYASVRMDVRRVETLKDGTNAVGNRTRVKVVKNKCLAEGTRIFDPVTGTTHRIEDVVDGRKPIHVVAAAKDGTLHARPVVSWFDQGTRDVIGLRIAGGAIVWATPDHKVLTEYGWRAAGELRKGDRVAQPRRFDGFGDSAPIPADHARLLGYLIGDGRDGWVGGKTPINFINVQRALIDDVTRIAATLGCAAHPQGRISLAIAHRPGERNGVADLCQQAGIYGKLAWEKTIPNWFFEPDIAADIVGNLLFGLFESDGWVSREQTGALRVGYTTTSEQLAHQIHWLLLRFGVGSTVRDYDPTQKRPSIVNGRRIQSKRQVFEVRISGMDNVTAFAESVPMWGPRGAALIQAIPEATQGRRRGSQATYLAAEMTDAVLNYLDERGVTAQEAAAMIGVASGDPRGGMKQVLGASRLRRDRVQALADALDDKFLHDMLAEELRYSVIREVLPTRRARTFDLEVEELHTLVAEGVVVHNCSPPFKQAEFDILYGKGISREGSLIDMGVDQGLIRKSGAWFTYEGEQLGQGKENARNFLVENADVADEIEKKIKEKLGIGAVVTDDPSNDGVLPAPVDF
Arbovirus anti: blocks arbovirus infection; arbovirus infection cell-based antiviral screen; inhibition, % at 10 µM; 0.37% of 200,000 active;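 active = inhibition from about 30%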;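 note: bluetongue infection of BSR cells; cell survival read as ATP light after 72 h; 0% = infected wells without compound and 100% = uninfected wells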
Mtb growth: M. tuberculosis H37Rv growth inhibitors, H37Rv strain (AID 1626); 0.95% of 220,000 active; M. tuberculosis H37Rv growth inhibition; higher % means a stronger effect; inhibition, % at 10 µM, or IC50 in µM where a hit was titrated;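 active = confirmed in a dose series; inconclusive = inhibition above 80% but not taken into the dose series; inactive = below 80% or under 30% at every dose of the series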;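 note: bacteria incubated seven days before Alamar blue readout; 0% = bacteria only wells and 100% = bacteria with antibiotic wells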
Arbovirus anti repeat: also measured in Arbovirus anti; calls as there; inhibition, %; measured here: 10K subset replicate screen; many hits read low in the repeat;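 first of two repeat runs on a subset; 0% = infected and 100% = uninfected wells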
Starred values were filed as active, the others as inactive; u = inconclusive; x = not tested or not shown. This is a subset. The share of hits here may be higher or lower than overall.

SMILES	YopH inh	Mtb bLac sens	RecA splice inh	Arbovirus anti	Mtb growth	others
O=C(CSc1nnc(NC2CCCCC2)s1)NCc1ccco1	x	3	-2.4	-1	-6%
CCOC(=O)Cc1nc(-c2ccc(Cl)cc2)n[nH]1	x	0	-0.8	4	4%
Cc1[nH]cnc1CSCc1ccc(F)cc1	-35	3	2.3	6	-1%
N#CCn1cc(/C=N/NC(=O)c2cc3c(ccc4ccccc43)o2)c2ccccc21	x	26	-1.5	x	8%
CCOC1OC(=O)C(Cl)=C1Nc1ccccc1C (stereo not given)	16	98	-1.6	0	u
CCCCn1c(=O)[nH]c(=O)c2c1nc(-c1ccc(-c3ccccc3Br)o1)n2CCOC	-23	0	4.4	-13	3%
COc1ccc2nc(SCC(=O)Nc3ccc4sc(C)nc4c3)c(C#N)cc2c1	-38	6	2.0	-12	-1%
CCn1cc(CN2CCCC(CO)(Cc3ccc(F)cc3)C2)c2ccccc21 (stereo not given)	x	98	2.2	x	x
CCC(C)N=Cc1c(O)n(-c2ccccc2)c(=O)[nH]c1=O (stereo not given)	-24	-7	-0.6	3	-6%
CN1CCN(/N=C/c2ccc(-c3ccc([N+](=O)[O-])cc3)o2)CC1	x	96	0.4	-14	u
Cc1onc(-c2ccccc2)c1C(=O)N/N=C/c1ccc([N+](=O)[O-])s1	-14	100	-14	-26	u
COc1ccc(NC(=S)Nc2ccc(OC)cc2OC)c(OC)c1	1	-8	-5.0	3	-1%
O=[N+]([O-])c1cccc(-c2nc(NCc3ccccc3)c3ccccc3n2)c1	-17	-3	0.2	6	0%
COc1ccccc1C(=O)Nc1ccccn1	3	2	-4.0	0	1%
COCC(C)NC(=O)c1ccc(-n2nc(C(F)(F)F)cc2-c2cccs2)cc1 (stereo not given)	-9	12	1.2	-3	5%

Among those listed so far, three have an aryl methoxy group:
SMILES	YopH inh	Mtb bLac sens	RecA splice inh	Arbovirus anti	Mtb growth	others
COc1ccc2nc(SCC(=O)Nc3ccc4sc(C)nc4c3)c(C#N)cc2c1	-38	6	2.0	-12	-1%
COc1ccc(NC(=S)Nc2ccc(OC)cc2OC)c(OC)c1	1	-8	-5.0	3	-1%
COc1ccccc1C(=O)Nc1ccccn1	3	2	-4.0	0	1%

Continued.
SMILES	YopH inh	Mtb bLac sens	RecA splice inh	Arbovirus anti	Mtb growth	others
CSc1ncccc1C(=O)OCc1ccccc1Cl	x	2	6.0	-3	-3%
O=C(O)c1ccc(/C=N/Nc2nc(N3CCCCC3)nc(N3CCCCC3)n2)cc1	x	4	-1.8	x	6%
CCOCC(=O)Nc1cccc(C(=O)OCC)c1	9	95	-1.5	5	14%
COc1ccc2nc3cccc(OC)c3nc2c1	x	17	45*	-1	-1%
Cc1ccc(S(=O)(=O)Nc2c(C)n(C)n(-c3ccccc3)c2=O)cc1C(=O)NCc1ccccn1	-51	-1	-1.1	1	3%
CCCc1nc(SCC(=O)Nc2cc(Cl)ccc2OC)c2c(=O)n(C)c(=O)n(C)c2n1	-27	x	4.4	-12	5%
COc1ccc(N2C(=O)C(Cl)=C(N3CCCC3)C2=O)cc1	-12	5	7.7	-1	-3%
Cc1ccccc1NC(=O)c1cnc2ccccn2c1=O	-24	12	2.2	5	-6%
O=C1CC(c2cccnc2)c2cc3c(cc2N1)OCO3 (stereo not given)	-28	-4	0.8	3	1%	Arbovirus anti repeat=-2
Cc1ccc(N(C(=O)CNC(=O)c2ccco2)C(C(=O)NC2CCCC2)c2ccncc2)cc1F (stereo not given)	x	-1	2.2	x	x
COc1cc(S(=O)(=O)N(C)C2CCCCC2)c(C)cc1C	x	x	10	2	5%
CCC1(Cc2ccccc2)NC(=O)c2ccccc2O1 (stereo not given)	x	0	1.3	-9	-2%
Cn1ncc(Br)c1C(=O)N1CCOCC1	-26	5	-3.2	-3	2%
COc1cccc(-c2nn(-c3ccccc3)cc2CN(C)C(C)c2ccon2)c1 (stereo not given)	x	86	9.4	1	9%
CSc1ccc(S(=O)(=O)NCC(=O)OC(C)C(=O)NCc2ccccc2)cc1[N+](=O)[O-] (stereo not given)	x	-2	-2.3	x	x
O=C(CCN1CCOCC1)Nc1ccc2c(c1)CCC2	-37	-1	1.2	4	-5%
NNC(=O)CCc1nc2ccccc2[nH]1	x	-6	-2.6	10	-8%
Cc1c(N=Cc2ccc(O)c(Br)c2)cccc1[N+](=O)[O-]	-24	5	0.3	8	0%
COc1ccc(NC(=S)c2ccc(N(C)C)cc2)cc1	-18	12	-3.6	0	12%
CS(=O)(=O)N1CCCC(C(=O)Nc2ccc(Br)cc2F)C1 (stereo not given)	x	-2	x	5	-11%
Cc1c(NC(=O)CN2C(=O)c3ccccc3C2=O)c(=O)n(-c2ccccc2)n1C	-28	-19	-0.8	-1	-12%
O=C1S/C(=C\c2ccc(O)c([N+](=O)[O-])c2)C(=O)N1Cc1cccc([N+](=O)[O-])c1	x	7	-0.2	-8	-4%
O=C(Nc1ccc2c(c1)OCCO2)c1ccc2ccccc2n1	x	41	0.5	-6	12%
CCCS(=O)(=O)c1nnnn1-c1cccc(OC)c1	-2	101	91*	-39	u
COC(=O)c1ccc(CSC2=NCCS2)cc1	-21	7	3.4	-9	3%
CS(=O)(=O)c1ccc(C2=C(c3ccccc3)C(=O)OC2)cc1	x	1	-2.6	x	-2%
Cc1ccc(S(=O)(=O)Nc2cc(C(C)C)c(O)cc2C)cc1	-35	-6	4.6	-7	-11%
Cc1ccc(S(=O)(=O)N(C)CCCC(=O)N2CCCCC2)cc1	x	2	0.2	x	x
c1ccc(-c2cn3c(n2)SCC3)cc1	-15	-17	0.5	5	-8%
Cc1nn(-c2ccc(C(=O)O)cc2)c(N)c1-c1ccccc1	-44	3	2.7	-1	x
Cc1cccc(C)c1NC(=O)N1CCC(n2cnc3ccccc32)CC1	-30	3	-1.9	7	-9%
COc1ccccc1Nc1nc(-c2sc(NC(=O)c3cccc(Cl)c3)nc2C)cs1	0	2	-1.1	-5	-3%
COC(=O)C(NC(=O)COc1ccccc1)(Nc1nc2c(s1)CCCC2)C(F)(F)F (stereo not given)	-34	-9	2.9	-4	-9%
COc1ccccc1CCC(=O)OCC(=O)Nc1c(C)nn(-c2ccccc2)c1C	x	-9	3.4	x	x
COc1ccc(OC)c(-n2c(=S)[nH]c3c(sc(=S)n3-c3ccccc3C)c2=O)c1	x	-9	-19	5	4%
Cc1ccccc1-n1c(SCC(=O)Nc2ccccc2)nc2nc3c(cc2c1=O)CCCC3	-20	60	12	-3	21%
O=C(c1cc2cc(Br)cc(Br)c2oc1=O)N1CCOCC1	x	7	-0.3	x	x
CCc1sc(C(=O)N2CCN(S(C)(=O)=O)CC2)cc1Br	-6	-7	-3.0	0	5%
COc1ccc(N2C(=O)CSC2c2ccccc2F)c(OC)c1 (stereo not given)	x	-7	1.5	x	x
Cc1cc(C(F)F)nn1CC(=O)Nc1cc([N+](=O)[O-])ccc1F	-31	-3	0.1	8	12%
CCN(CC)S(=O)(=O)c1ccc(N2CCCCC2)c(C(=O)Nc2ccccc2N2CCOCC2)c1	-17	1	8.7	-4	5%
CN(C)C(CNC(=O)c1cccs1)c1cccnc1 (stereo not given)	-29	-7	0.7	4	-2%	Arbovirus anti repeat=0
COc1ccc2nc(SCC(=O)Nc3ccccc3)[nH]c2c1	-30	0	-0.1	1	6%
Cc1ccc(-c2cn3cccnc3n2)cc1	x	2	-1.3	-2	-5%
Cc1cccc(-n2ncc3c2CCCC3NC(=O)C2CCOCC2)c1C (stereo not given)	x	-9	-1.5	x	x
CCOc1cccc(-c2nc(C(N)=O)c3[nH]c(=O)n(-c4cccc(Cl)c4)c3n2)c1O	-18	-1	2.6	14	-4%	Arbovirus anti repeat=6
FC(F)(F)c1nnc2sc(-c3ccccn3)nn12	-2	-11	10	-1	-6%
Cc1cccc(NCc2ccc(O)c3ncccc23)c1	x	16	-0.4	-1	-6%
COc1cc(OC)c(/C=N/n2c(C3CCCCC3)n[nH]c2=S)c(OC)c1	x	0	-1.4	x	x
CCOc1ccccc1NC(=O)CSc1nc2c(c(=O)n1C)SC(C)C2 (stereo not given)	-11	1	1.0	6	9%	Arbovirus anti repeat=-1
CCNC(=S)N/N=C/c1ccco1	14	95	x	11	8%
O=C(COc1ccc([N+](=O)[O-])cc1)NNC(=O)c1cccs1	x	7	-2.2	4	84%
C/C(=N\NC(=O)CNC(=O)c1cccc(F)c1)c1ccc2ccccc2c1	x	-1	3.7	x	x
CC(C)(C)OC(=O)CNC(=O)c1nc[nH]c1C(=O)NCc1ccc(CNC(=O)OC(C)(C)C)cc1	x	-14	0.2	x	x
C=CCn1c(=O)c2ccccc2n2c(SC(C)C(=O)Nc3nc(-c4ccccc4)cs3)nnc12 (stereo not given)	-47	3	-4.3	7	5%
CCN(CC)CCCC(C)NC(=O)c1cccc(S(=O)(=O)N2CCc3ccccc32)c1 (stereo not given)	x	-3	3.8	17	8%
O=c1c2ccccc2nc(-c2ccc(Br)cc2)n1Cc1ccccc1	-37	16	1.6	6	7%
CC12CCC3(CO)COC(c4ccccc4O1)C2C3 (stereo not given)	-38	1	-0.4	-1	-3%
COC(=O)c1cc(C(=O)OC)cc(-n2c(C)cc(C(=O)COC(=O)CNS(=O)(=O)c3ccc(C)cc3)c2C)c1	-22	6	0.1	3	-1%
O=C(c1cccs1)N(c1ccc(F)cc1)C1C=CS(=O)(=O)C1 (stereo not given)	x	3	1.8	2	-4%

Overlap with the part before: 6 entries, followed by the next part.
SMILES	YopH inh	Mtb bLac sens	RecA splice inh	Arbovirus anti	Mtb growth	others
C=CCn1c(=O)c2ccccc2n2c(SC(C)C(=O)Nc3nc(-c4ccccc4)cs3)nnc12 (stereo not given)	-47	3	-4.3	7	5%
CCN(CC)CCCC(C)NC(=O)c1cccc(S(=O)(=O)N2CCc3ccccc32)c1 (stereo not given)	x	-3	3.8	17	8%
O=c1c2ccccc2nc(-c2ccc(Br)cc2)n1Cc1ccccc1	-37	16	1.6	6	7%
CC12CCC3(CO)COC(c4ccccc4O1)C2C3 (stereo not given)	-38	1	-0.4	-1	-3%
COC(=O)c1cc(C(=O)OC)cc(-n2c(C)cc(C(=O)COC(=O)CNS(=O)(=O)c3ccc(C)cc3)c2C)c1	-22	6	0.1	3	-1%
O=C(c1cccs1)N(c1ccc(F)cc1)C1C=CS(=O)(=O)C1 (stereo not given)	x	3	1.8	2	-4%
CCc1ccc(OCC(=O)NNC(=O)c2cc(S(=O)(=O)N(C)C)ccc2N2CCCC2)cc1	x	-8	-0.6	x	x
Cc1cc(-c2nnc(CCC(=O)NCc3ccc(OC(F)(F)F)cc3)o2)no1	x	-1	-1.8	x	x
O=C(c1ccc(N2CCCCS2(=O)=O)cc1)N1CCN(c2ccccc2F)CC1	x	0	-0.5	x	x
Cc1ccccc1OCC(=O)OCC(=O)Nc1ccc(S(N)(=O)=O)cc1	x	3	1.2	-1	-6%
CNC(=S)Nc1cc(C)ccc1OC(F)F	x	-3	0.9	3	-6%
Cc1c(C(=O)N2CCOCC2)c(S(=O)(=O)Nc2ccc(C(C)C)cc2)c(C)n1C	x	-5	-1.3	x	x
Cc1cc(C)cc(N(CC(=O)NC2CCCCC2)C(=O)c2csnn2)c1	x	1	1.2	x	x
Cc1cc(=O)n2[nH]c(C)c(-c3ccc(Cl)cc3)c2n1	0	3	0.0	-9	u	Arbovirus anti repeat=-17
C/C(=N\NC(=O)CNC(=O)C(c1ccccc1)c1ccccc1)c1ccc(C)cc1	-32	1	-5.6	-12	-10%
CCOC(=O)C1CCN(C(=O)Nc2ccc3oc(C)nc3c2)CC1	3	5	-0.7	3	5%
CCN(CC)CC(O)CN1C(=O)NC(C)(C)C1=O (stereo not given)	x	-3	3.0	3	-6%
Cc1ccc(-c2nnc(N3CCC(C)CC3)c3ccccc23)cc1C	x	63	24	-32	6%
Cc1ccc(S(=O)(=O)NN2C(=O)/C(=C/c3cccs3)SC2=S)cc1	x	1	20	x	-1%
O=C(O)c1ccc(Nc2nc3ccccc3nc2NS(=O)(=O)c2ccc(F)cc2)cc1	x	5	-3.0	x	x
COC(=O)c1ccc(C(=O)OC)c(NC(=O)CN(C)Cc2cccc(Cl)c2Cl)c1	-32	-5	-1.2	13	3%
NC(=O)c1cc(S(=O)(=O)NCc2ccc(F)cc2)cs1	x	10	0.4	x	x
COCCN1CCN(C(=O)C2CCC(=O)N(Cc3ccc(Cl)cc3)C2)CC1 (stereo not given)	x	-5	-0.6	x	x
CSCCC(NC(=O)c1ccccc1Cl)C(=O)NCC(c1ccco1)N1CCCCC1 (stereo not given)	x	-1	-0.4	x	x
CC1C(=O)N2CCCc3cc(NC(=O)C(=O)NCc4ccc5c(c4)OCO5)cc1c32 (stereo not given)	x	-2	-0.6	x	x
Cc1nc(Sc2cccn2C)c(C(F)(F)F)c(=O)[nH]1	-10	6	-1.1	14	1%
O=C(NNc1c([N+](=O)[O-])cc(C(F)(F)F)cc1[N+](=O)[O-])c1ccco1	x	-1	0.3	x	x
